RecA splice inh = inhibitors of M. tuberculosis RecA intein splicing; inhibition, %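 (about 9 µM by stock and volumes)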; cell-free RecA intein splicing, fluorescence; 290,000 tested, 0.75% active; P9WHJ3; AID 2221; in the data active = inhibition above about 30%; inconclusive = no clear call, values can overlap the other calls;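 also: 0% = vehicle wells and 100% = reference inhibitor control wells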
Target sequence (P9WHJ3 whole entry, looked up, canonical isoform): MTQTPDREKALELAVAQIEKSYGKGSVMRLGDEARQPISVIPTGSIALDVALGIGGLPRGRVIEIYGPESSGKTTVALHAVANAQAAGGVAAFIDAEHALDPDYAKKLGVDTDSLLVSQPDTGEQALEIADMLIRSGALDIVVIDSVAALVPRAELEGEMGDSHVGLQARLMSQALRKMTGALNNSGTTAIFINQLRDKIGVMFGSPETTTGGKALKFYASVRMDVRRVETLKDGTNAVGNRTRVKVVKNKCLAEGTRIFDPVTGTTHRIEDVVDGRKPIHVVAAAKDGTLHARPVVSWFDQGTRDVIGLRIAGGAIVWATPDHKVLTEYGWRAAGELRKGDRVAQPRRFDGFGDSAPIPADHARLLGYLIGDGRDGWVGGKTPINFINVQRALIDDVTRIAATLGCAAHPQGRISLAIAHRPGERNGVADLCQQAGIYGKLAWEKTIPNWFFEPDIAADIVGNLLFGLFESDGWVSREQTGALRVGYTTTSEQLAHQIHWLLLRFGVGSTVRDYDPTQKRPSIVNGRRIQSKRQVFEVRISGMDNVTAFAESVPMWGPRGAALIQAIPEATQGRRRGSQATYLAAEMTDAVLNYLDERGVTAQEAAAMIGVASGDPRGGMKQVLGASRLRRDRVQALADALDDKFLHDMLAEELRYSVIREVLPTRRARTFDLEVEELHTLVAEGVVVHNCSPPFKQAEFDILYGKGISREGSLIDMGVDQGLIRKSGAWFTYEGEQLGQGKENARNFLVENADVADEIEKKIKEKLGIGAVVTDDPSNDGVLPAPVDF
Mtb growth = M. tuberculosis H37Rv growth inhibitors, H37Rv strain (AID 1626). M. tuberculosis H37Rv growth inhibition; higher % means a stronger effect. inhibition, % at 10 µM; hits with a dose series show IC50 in µM. 220,000 tested, 0.95% active;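 active = confirmed in a dose series; inconclusive = inhibition above 80% but not taken into the dose series; inactive = below 80% or under 30% at every dose of the series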;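 also: bacteria incubated seven days before Alamar blue readout; 0% = bacteria only wells and 100% = bacteria with antibiotic wells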
YopH inh = YopH (Yersinia) phosphatase inhibition | fluorescence Ex485/Em525 | inhibition, %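 (about 10 µM by stock and volumes)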 | 140,000 tested, 0.16% active;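 active = inhibition of 50% or more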;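 also: controls were vehicle for no effect and minimum signal wells for full effect; inactives centre near -20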
Mtb bLac sens = beta-lactam sensitization of Mtb H37Rv; M. tuberculosis H37Rv growth with meropenem, percent inhibition; hits of this screen are not shown here; inhibition, % at 25 µM; 330,000 tested, 0.27% active; AID 434955;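 active = about 74% or more and at least 40 points above the plate without the antibiotic, then above 30% in a dose series; inconclusive = first-round hits that could not be retested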;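 also: growth measured after seven days incubation then overnight dye step; 0% = bacteria only wells and 100% = bacteria with antibiotic; twin plates without the antibiotic show which effects depend on it; some results filed as inactive read as strong as hits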
Arbovirus inh = antivirals against arbovirus infection | arbovirus infection cell-based antiviral screen | inhibition, % at 10 µM | 200,000 tested, 0.37% active | AID 1251;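 active = inhibition from about 30%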;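 also: bluetongue infection of BSR cells; cell survival read as ATP light after 72 h; 0% = infected wells without compound and 100% = uninfected wells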
* marks the source's active call; other numbers are inactive results; u = inconclusive; x = no result given.

SMILES	RecA splice inh	Mtb growth	YopH inh	Mtb bLac sens	Arbovirus inh
Cc1cccc2[nH]c(CCNC(=O)C3CCC(=O)N(CCc4cccc(F)c4)C3)nc12 (stereo not drawn)	2.4	x	x	-4	x
COC(=O)CNC(=O)C1Cc2ccccc2CN1S(=O)(=O)c1cccs1 (stereo not drawn)	0.6	-12%	x	-2	x
COCCNC(=O)COc1cc(=O)n(C)c2ccccc12	-1.5	-11%	-40	-3	-2
Cc1ccccc1NC(=O)c1c(Cl)nc(C)c(Cl)c1C	2.9	27%	-25	94	-13
O=C(NCCc1ccccc1)/C(=C\c1cccc([N+](=O)[O-])c1)NC(=O)c1ccco1	-0.1	x	x	-4	x
Cc1ccc2nc(NCCc3ccc(Cl)cc3)c3nncn3c2c1	-2.3	x	x	-3	x
COc1ccc(CCn2c(O)c(C=NCCCn3ccnc3)c(=O)[nH]c2=O)cc1OC	-1.2	-5%	-6	-13	3
CCOc1ccc(-c2c(=O)n(OCc3ccccc3Br)c3ccccc3[n+]2[O-])c(OCC)c1	-2.2	15%	x	-10	4
CC1Cn2c(nc3c2c(=O)[nH]c(=O)n3C)O1 (stereo not drawn)	0.3	-11%	-49	0	7
O=C(CN1N=C(c2ccccc2)CCC1=O)NCc1ccco1	1.0	-6%	-5	1	-8
Cc1nc2nc[nH]n2c(=O)c1CCC(C)C	-1.5	5%	-47	12	6
CCOc1cc(CNc2nn[nH]n2)ccc1OCC(=O)NC(C)(C)C	-2.6	2%	x	9	7
O=C(CN1NS(=O)(=O)c2ccccc2C1=O)Nc1ccccc1OC(F)F	2.1	-9%	-2	3	4
CCCCN(C(=O)c1ccc(S(=O)(=O)N(CC)CC)cc1)c1c(N)n(CCC)c(=O)[nH]c1=O	-0.8	x	x	-4	x
COc1ccccc1NC(=O)CC1S/C(=N/N=C2\CCCc3ccccc32)NC1=O (stereo not drawn)	3.9	46%	x	-3	7
COC(=O)c1nn(-c2ccccc2)c(=O)cc1Oc1ccccc1	-0.1	-8%	-38	-2	3
O=C1NC(NS(=O)(=O)c2ccccc2)(C(F)(F)F)C(=O)N1Cc1ccccc1 (stereo not drawn)	-1.4	x	x	1	x
CCOC(=O)c1cc(S(=O)(=O)N2CCN(c3ccccc3OC)CC2)cn1C	-1.1	x	x	2	x
CC1CCN(S(=O)(=O)c2ccc3c(ccn3CCC(=O)NC(C)C)c2)CC1	3.5	x	x	-19	x
COc1ccc(-c2[nH]n(-c3ccc([N+](=O)[O-])cc3)c(=O)c2C=NCc2ccncc2)cc1	0.1	7%	-27	6	15
O=C(CN(Cc1ccco1)C(=O)CNS(=O)(=O)c1ccc(Cl)cc1)NCC1CCCO1 (stereo not drawn)	0.5	-1%	x	-10	x
Cc1ccccc1C(=O)NNc1ncnc2c1cnn2C	-5.6	-6%	x	-7	14
CCNS(=O)(=O)c1ccc(CCC(=O)N2CCN(c3ccc(OC)cc3)CC2)cc1	-0.6	x	x	0	x
Cc1cc(C)c(S(=O)(=O)/N=C2\C=CC(=O)C(Cl)=C2)c(C)c1	x	-5%	-23	-2	1
O=C(CNC(=O)c1ccco1)N/N=C/c1c[nH]c2ccccc12	2.0	5%	x	0	-4
New compounds follow
SMILES	RecA splice inh	Mtb growth	YopH inh	Mtb bLac sens	Arbovirus inh
O=C(Nc1cccc(-c2ccc(N3CCOCC3)nn2)c1)c1ccccc1	0.1	x	x	4	x
Cc1ccc(/C=C/C(=O)O)cc1S(=O)(=O)Nc1ccc(C(=O)O)cc1	-2.5	-4%	x	6	x
CC(=O)OCC1(C)CN(c2ccccc2)N(C(=O)c2ccc(F)cc2)C1=O (stereo not drawn)	1.0	13%	x	48	-24
COc1ccc(N(CC(=O)N/N=C/c2ccc3c(c2)OCO3)S(=O)(=O)c2ccccc2)cc1	1.4	-7%	x	4	-5
CNC(=O)C1CC(=O)N(CCc2ccccc2)C(=Nc2ccc(OC)cc2)S1 (stereo not drawn)	1.3	6%	x	2	4
Clc1cc(Cl)c2nc(N3CCCC3)sc2c1	3.4	-4%	-36	u	x
Cc1cc(OCc2nc(-c3ccc(NC(=O)c4cccnc4)cc3)no2)ccc1Cl	0.1	-1%	-31	-1	3
CN(C)c1c(N)[nH]c2c(c1=O)c(=O)n(C)c(=O)n2C	-7.0	-10%	-20	0	-6
Cn1ncc(N=Cc2ccccc2[N+](=O)[O-])c1C(N)=O	2.6	-6%	x	-3	x
Cc1ccc(S(=O)(=O)NCCCCCC(N)=O)cc1	4.4	6%	2	-8	2
CCOc1ccccc1C(=O)N1CCC(n2nnc3cc(C)ccc32)CC1	0.7	-9%	-33	-6	2
COCC(=O)N(C)c1nnc(-c2ccc([N+](=O)[O-])cc2)s1	0.7	-4%	-19	14	10
Cc1ccccc1NC(=O)COC(=O)c1ccc(S(C)(=O)=O)c([N+](=O)[O-])c1	x	1%	x	3	-3
CC(Oc1cccc(Cl)c1)C(=O)NCc1ccc(S(N)(=O)=O)cc1 (stereo not drawn)	-4.2	6%	x	4	1
Cc1cc(/C=C2\NC(=S)N(C)C2=O)ccc1N1CCCC1	-2.4	-2%	x	-5	-2
CC1CCN(S(=O)(=O)c2nnc(NC(=O)COc3ccccc3)s2)CC1	0.0	x	x	-2	x
Cc1ccc(CCN2CC(C(=O)NCCCN3CCOCC3)CC2=O)cc1 (stereo not drawn)	-0.7	-5%	-6	-4	5
Oc1ccc(CC2CC3CCN2CC3)cc1O (stereo not drawn)	-4.3	-3%	-36	15	1
COC(=O)C1=C(C)N(CC2CC2)C(=O)N[C@H]1c1ccccc1	0.4	-5%	x	-3	x
CCn1c(SCC(=O)Nc2ccc(-c3nc4ccc(C)cc4s3)cc2)nnc1-c1ccccc1	-0.6	3%	-2	-1	8
O=C(c1ccc(Cl)c(S(=O)(=O)N2CCCCC2)c1)N1CCN(c2ccccc2)CC1	1.2	x	x	-11	x
O=C(NNS(=O)(=O)c1ccc(F)cc1)c1sccc1-n1cccc1	3.3	7%	x	2	0
COc1ccc(-c2[nH]c(-c3ccccc3)nc2SCC(=O)NCc2ccco2)cc1OC	-2.7	1%	-54	7	-12
COc1ccc(S(=O)(=O)N2c3ccccc3OCC2C)cc1 (stereo not drawn)	4.9	-1%	x	-3	-12
CC1CCN(c2c(NCC3CCC(C(=O)NCCc4ccc(Cl)cc4)CC3)c(=O)c2=O)CC1 (stereo not drawn)	2.6	12%	x	8	x

Of the compounds above, these have an aryl thioether with sulfur outside any ring.
SMILES	RecA splice inh	Mtb growth	YopH inh	Mtb bLac sens	Arbovirus inh
CCn1c(SCC(=O)Nc2ccc(-c3nc4ccc(C)cc4s3)cc2)nnc1-c1ccccc1	-0.6	3%	-2	-1	8
COc1ccc(-c2[nH]c(-c3ccccc3)nc2SCC(=O)NCc2ccco2)cc1OC	-2.7	1%	-54	7	-12

Next part.
SMILES	RecA splice inh	Mtb growth	YopH inh	Mtb bLac sens	Arbovirus inh
CCCC(C(=O)NC1CCCC1)N(CCCN1CCOCC1)C(=O)c1snc(C(N)=O)c1N (stereo not drawn)	-12	-6%	-35	-9	5
COc1ccc2nc(NC(=O)C3CCN(S(=O)(=O)c4cnc[nH]4)CC3)sc2c1	1.8	12%	-25	-3	15
CCOP(=O)(C1=C(O)C(=O)C(C(C)(C)C)=CC1=O)c1ccccc1 (stereo not drawn)	x	-10%	x	x	18
COCCNC(=O)c1c(N)n(/N=C/c2ccc(F)cc2)c2nc3ccccc3nc12	-35	3%	x	70	x
COc1ccc(NC(=O)C2CCN(c3nc(-c4ccc(OC)cc4)no3)CC2)cc1	1.2	x	x	5	x
Cc1cccc(N(C(=O)c2nsc(Cl)c2Cl)C(C(=O)NC2CCCC2)c2ccc(O)cc2)c1 (stereo not drawn)	0.0	-2%	-19	-5	-19
CN(C)CCCNCCNC(=O)/C=N\O	-3.5	-9%	-35	-4	7
COc1cc(-c2nc(S(=O)(=O)c3ccc(Cl)cc3)c(N3CCOCC3)o2)cc(OC)c1OC	-0.1	-4%	-119	-4	9
O=C(COc1cccnc1[N+](=O)[O-])NCCc1ccc(Cl)cc1	0.7	5%	x	-5	-6
COc1ccc(C(=O)N2CCCC(CCC(=O)NCc3ccccc3F)C2)c(OC)n1 (stereo not drawn)	-1.6	x	x	0	x
Cc1c(C(O)CN2CCN(Cc3ccc4c(c3)OCO4)CC2)c2ccccc2n1C (stereo not drawn)	0.8	-5%	-44	2	-3
CCN(C(=O)CCc1nc(-c2ccc(OC)cc2)no1)c1cc(OC)ccc1OC	12	6%	-11	-10	-26
COc1ccc(-c2nc(CS(=O)(=O)CC(=O)NCc3ccc(F)cc3)c(C)o2)cc1	-2.2	x	x	3	x
NS(=O)(=O)c1ccc(CCNC(=O)CN2CCN(c3ccc(F)cc3)CC2)cc1	0.8	0%	-21	7	4
CC1CC(C)CN(S(=O)(=O)c2ccc3c(c2)oc(=O)n3CC(=O)NCCCOC(C)C)C1 (stereo not drawn)	-2.5	x	x	-4	x
CCCCn1c(N)c(N(CC(C)C)C(=O)C2CC(=O)N(c3ccc4c(c3)OCCO4)C2)c(=O)[nH]c1=O (stereo not drawn)	14	x	x	-4	x
COc1ccc(Nc2nnc(SCC(=O)NC(=O)Nc3ccc4c(c3)OCCO4)s2)cc1	-1.3	24%	x	17	-25
Cc1ccc(C(=O)NCc2cccnc2)o1	-2.4	x	x	0	x
O=C(NNS(=O)(=O)c1cccc(Cl)c1Cl)c1cccc(S(=O)(=O)N2CCOCC2)c1	2.5	-12%	-42	6	-8
O=C(CSc1nnnn1-c1ccccc1)Nc1ccc(N2CCOCC2)cc1	-1.7	4%	x	-3	6

An excerpt of these results, as a markdown table:
| compound | RecA splice inh | Mtb growth | YopH inh | Mtb bLac sens | Arbovirus inh |
| --- | --- | --- | --- | --- | --- |
| CCCC(C(=O)NC1CCCC1)N(CCCN1CCOCC1)C(=O)c1snc(C(N)=O)c1N (stereo not drawn) | -12 | -6% | -35 | -9 | 5 |
| COc1ccc2nc(NC(=O)C3CCN(S(=O)(=O)c4cnc[nH]4)CC3)sc2c1 | 1.8 | 12% | -25 | -3 | 15 |
| CCOP(=O)(C1=C(O)C(=O)C(C(C)(C)C)=CC1=O)c1ccccc1 (stereo not drawn) | x | -10% | x | x | 18 |
| COCCNC(=O)c1c(N)n(/N=C/c2ccc(F)cc2)c2nc3ccccc3nc12 | -35 | 3% | x | 70 | x |
| COc1ccc(NC(=O)C2CCN(c3nc(-c4ccc(OC)cc4)no3)CC2)cc1 | 1.2 | x | x | 5 | x |
| Cc1cccc(N(C(=O)c2nsc(Cl)c2Cl)C(C(=O)NC2CCCC2)c2ccc(O)cc2)c1 (stereo not drawn) | 0.0 | -2% | -19 | -5 | -19 |
| CN(C)CCCNCCNC(=O)/C=N\O | -3.5 | -9% | -35 | -4 | 7 |
| COc1cc(-c2nc(S(=O)(=O)c3ccc(Cl)cc3)c(N3CCOCC3)o2)cc(OC)c1OC | -0.1 | -4% | -119 | -4 | 9 |
| O=C(COc1cccnc1[N+](=O)[O-])NCCc1ccc(Cl)cc1 | 0.7 | 5% | x | -5 | -6 |
| COc1ccc(C(=O)N2CCCC(CCC(=O)NCc3ccccc3F)C2)c(OC)n1 (stereo not drawn) | -1.6 | x | x | 0 | x |
| Cc1c(C(O)CN2CCN(Cc3ccc4c(c3)OCO4)CC2)c2ccccc2n1C (stereo not drawn) | 0.8 | -5% | -44 | 2 | -3 |
| CCN(C(=O)CCc1nc(-c2ccc(OC)cc2)no1)c1cc(OC)ccc1OC | 12 | 6% | -11 | -10 | -26 |
| COc1ccc(-c2nc(CS(=O)(=O)CC(=O)NCc3ccc(F)cc3)c(C)o2)cc1 | -2.2 | x | x | 3 | x |
| NS(=O)(=O)c1ccc(CCNC(=O)CN2CCN(c3ccc(F)cc3)CC2)cc1 | 0.8 | 0% | -21 | 7 | 4 |
| CC1CC(C)CN(S(=O)(=O)c2ccc3c(c2)oc(=O)n3CC(=O)NCCCOC(C)C)C1 (stereo not drawn) | -2.5 | x | x | -4 | x |
| CCCCn1c(N)c(N(CC(C)C)C(=O)C2CC(=O)N(c3ccc4c(c3)OCCO4)C2)c(=O)[nH]c1=O (stereo not drawn) | 14 | x | x | -4 | x |
| COc1ccc(Nc2nnc(SCC(=O)NC(=O)Nc3ccc4c(c3)OCCO4)s2)cc1 | -1.3 | 24% | x | 17 | -25 |
| Cc1ccc(C(=O)NCc2cccnc2)o1 | -2.4 | x | x | 0 | x |
| O=C(NNS(=O)(=O)c1cccc(Cl)c1Cl)c1cccc(S(=O)(=O)N2CCOCC2)c1 | 2.5 | -12% | -42 | 6 | -8 |
| O=C(CSc1nnnn1-c1ccccc1)Nc1ccc(N2CCOCC2)cc1 | -1.7 | 4% | x | -3 | 6 |

These rows are one share of the data. The share of hits here may be higher or lower than overall.
